Source: PubChem BioAssay
TSHR agonist: qHTS Assay for Agonists of the Thyroid Stimulating Hormone Receptor; HEK293-CNG-TSHR cells (CNG channel as cAMP sensor), membrane potential dye, cAMP; Potency, µM (titrated, usually from 57.1 µM), for inactives: top-dose activation, hits mostly activators; actives 0.48% (n = 73,000); active = well fitted activation curve of enough size with the parental cells flat; inconclusive = any curve in the parental cells; inactive = parental cells flat and receptor cells flat or falling; also: potency is read from the fitted curve at half-maximal effect; % of control where 0% means no effect; weak receptor curves with flat parental cells got no call and are not listed
Target sequence (P16473 whole entry, looked up): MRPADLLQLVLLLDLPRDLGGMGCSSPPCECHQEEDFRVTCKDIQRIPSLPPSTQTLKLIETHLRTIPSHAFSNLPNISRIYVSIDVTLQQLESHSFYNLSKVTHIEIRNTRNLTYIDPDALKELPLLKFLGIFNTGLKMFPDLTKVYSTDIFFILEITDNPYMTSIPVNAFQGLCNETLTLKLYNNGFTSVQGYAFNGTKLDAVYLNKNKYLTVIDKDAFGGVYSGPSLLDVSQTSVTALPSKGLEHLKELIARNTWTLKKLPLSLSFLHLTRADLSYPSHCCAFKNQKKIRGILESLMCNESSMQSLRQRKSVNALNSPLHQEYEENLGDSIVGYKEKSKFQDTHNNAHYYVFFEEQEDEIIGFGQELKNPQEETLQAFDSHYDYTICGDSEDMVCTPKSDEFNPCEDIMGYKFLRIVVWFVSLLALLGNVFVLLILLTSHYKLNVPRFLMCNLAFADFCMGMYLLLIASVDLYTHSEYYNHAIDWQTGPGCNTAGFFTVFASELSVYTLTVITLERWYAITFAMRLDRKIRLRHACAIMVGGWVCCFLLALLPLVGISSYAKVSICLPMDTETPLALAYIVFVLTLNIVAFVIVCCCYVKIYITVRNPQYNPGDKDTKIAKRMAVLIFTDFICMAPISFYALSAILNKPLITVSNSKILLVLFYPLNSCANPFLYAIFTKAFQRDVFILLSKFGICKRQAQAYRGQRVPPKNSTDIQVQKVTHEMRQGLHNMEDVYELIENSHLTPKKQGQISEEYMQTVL
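HEK 293 cells stably expressing TSHR and a modified CNG channel, with CNG-only parental cells as counterscreen, were preloaded 60 min at room temperature with membrane potential dye containing 100 uM RO 20-1724. Compound exposure was 30 min, and depolarization was read as fluorescence at 590 nm.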
Resorufin autofl: qHTS Assay for Spectroscopic Profiling in Resorufin Spectral Region | Compound fluorescence, resorufin region 547/598 nm, buffer; stronger effect = higher value | max dye-equivalent concentration, M | actives 0.04% (n = 59,000) | AID 588, 2007; active = above 10 nM dye equivalent; inconclusive = 1 to 10 nM; inactive = 1 nM or less; a few of its hits are not listed in these tables; also: highest value over a series up to 38 µM
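Dye-equivalent concentration values derive from comparing each well's 547/598 nm fluorescence against resorufin standards included on every plate. Incubation was 15 min at room temperature in 100 mM Tris, pH 8.0.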
AID923: qHTS Assay for Allosteric/Competitive Inhibitors of Caspase-1: Spectroscopic Profiling in AFC Spectral Region. compound fluorescence, AFC spectral region (405/520 nm); almost no hit is shown here. Potency, µM (top dose mostly 57.5 µM), inactives show top-dose fluorescence increase, hits mostly activators. actives 1.1% (n = 75,000); active = well fitted activation curve with a large enough effect; inconclusive = small, poorly fitted or top-dose-only effect;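 also: potency is read from the fitted curve at half-maximal effect; 0% is about no effect; scaled to a free AFC standard on each plate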
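Compound autofluorescence profiled at 405 nm ex/520 nm em during kinetic caspase 1 run (50 nM enzyme, 5 uM Ac-WEHD-AFC, HEPES pH 7.5, 10 mM DTT). Titration up to 57 uM; baseline from regression intercept, normalized to AFC standard curve.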
A488 fluor: qHTS Assay for Spectroscopic Profiling in A488 Spectral Region | max dye equivalency, M | actives 0.1% (n = 59,000) | compound autofluorescence, A488 spectral region, dye equivalency; stronger effect = higher value; active = above 10 nM dye equivalent; inconclusive = 1 to 10 nM; inactive = 1 nM or less; about half of its hits are not listed in these tables;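 also: highest value over a series up to 38 µM; compound alone in buffer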
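Autofluorescence read at ex 480/em 540 nm after 15 min RT in 100 mM Tris pH 8.0; compound signal normalized to A488 standard series on each plate, reported as dye-equivalent concentration at each test concentration.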
A647 fluor: qHTS Assay for Spectroscopic Profiling in A647 Spectral Region. Compound fluorescence, A647 channel (570/671 nm), Tris buffer. max dye-equivalent concentration, M. 59,000 tested, under 10 active. AID 592, 2007; active means above 1 µM dye equivalent; inconclusive means 0.1 to 1 µM; inactive means 0.1 µM or less;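 also: values scaled relative to a standard on each plate; highest value over a series up to 38 µM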
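Each compound's intrinsic fluorescence at 570 nm excitation and 671 nm emission is measured across its concentration series in 100 mM Tris, pH 8.0, after 15 min at room temperature, and reported relative to an A647 curve.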
The depositor's hits bear a star; & = joins results of further samples; [ ] = dose if it differs, or a comment. Only part of the results is shown; the hit share may differ from the screen's.

`CCOC(=O)C1=C(C)Nc2nc(SCC)[nH]c(=O)c2C1c1ccncc1` (stereo not given) gave TSHR agonist -3%, Resorufin autofl inactive, AID923 0.2%, A488 fluor inactive and A647 fluor 3.1e-08.
NC(=O)c1cc(-c2ccccc2)nc(N2CCOCC2)n1 was read as TSHR agonist 3%[11.4 µM], Resorufin autofl inactive, AID923 2.2%, A488 fluor inactive and A647 fluor 4.4e-08.
COCCCn1c(C)nc2c(c1=O)c1nc3ccccc3nc1n2CCc1ccccc1 was read as Resorufin autofl inactive, A488 fluor inactive and A647 fluor 9.3e-09.
Screening CCOC(=O)c1c(C)c(C(=O)NCc2cccnc2)c(C)n1CC returned TSHR agonist 5%[11.4 µM], Resorufin autofl inactive, AID923 0.9%, A488 fluor inactive and A647 fluor 4.8e-09.
For COC(=O)c1ccc(C(=O)OC)c(NC(=O)CSc2nc(-c3ccco3)cc(C(F)(F)F)n2)c1 the results were TSHR agonist 5%, Resorufin autofl inactive, AID923 0.4%, A488 fluor inactive and A647 fluor 2.8e-08.
For O=C(CN1C(=O)CSC1=O)NC1CCCCC1 the results were TSHR agonist -1%, Resorufin autofl inactive, AID923 0.5%, A488 fluor inactive and A647 fluor 5.2e-09.
For Cc1ccc(Oc2ccc(-c3nc(N)nc(N)n3)cc2)cc1 the results were TSHR agonist -19% and AID923 -0.8%.
c1ccc(Oc2cccc(OCCn3cncn3)c2)cc1 was read as TSHR agonist 4%, Resorufin autofl inactive, AID923 -2.5%, A488 fluor inactive and A647 fluor 2.6e-08.
Screening Cc1cccc(-c2nc(CSCC(=O)NCCCN3CCOCC3)c(C)o2)c1 returned TSHR agonist 2%[11.4 µM], Resorufin autofl inactive, AID923 0.2%, A488 fluor inactive and A647 fluor 2.5e-08.
CC1Cc2nc(SCC(=O)Nc3ccc(F)cc3)n(C)c(=O)c2S1 (stereo not given) was read as TSHR agonist -1%, Resorufin autofl inactive, AID923 0.0%, A488 fluor inactive and A647 fluor 1e-09.
`CCOC(=O)c1c2c(c(=S)n(-c3ccccc3)c1N)CCC2` gave Resorufin autofl inactive, A488 fluor inactive and A647 fluor 4.3e-08.
For CCOC(=O)c1ccccc1NC(=O)CSc1nnc(Cc2cccn2C)n1-c1ccc(F)cc1 the results were TSHR agonist inconclusive, Resorufin autofl inactive, AID923 2.1%, A488 fluor inactive and A647 fluor 1.9e-08.

The closing 4 compounds of the part before are carried over, then new ones follow:
Screening Cc1cccc(-c2nc(CSCC(=O)NCCCN3CCOCC3)c(C)o2)c1 returned TSHR agonist 2%[11.4 µM], Resorufin autofl inactive, AID923 0.2%, A488 fluor inactive and A647 fluor 2.5e-08.
CC1Cc2nc(SCC(=O)Nc3ccc(F)cc3)n(C)c(=O)c2S1 (stereo not given) was read as TSHR agonist -1%, Resorufin autofl inactive, AID923 0.0%, A488 fluor inactive and A647 fluor 1e-09.
`CCOC(=O)c1c2c(c(=S)n(-c3ccccc3)c1N)CCC2` gave Resorufin autofl inactive, A488 fluor inactive and A647 fluor 4.3e-08.
For CCOC(=O)c1ccccc1NC(=O)CSc1nnc(Cc2cccn2C)n1-c1ccc(F)cc1 the results were TSHR agonist inconclusive, Resorufin autofl inactive, AID923 2.1%, A488 fluor inactive and A647 fluor 1.9e-08.
Screening CC1=[N+]([O-])C(C)(C)CC(C)(C)c2ccccc21 returned TSHR agonist 0%, Resorufin autofl inactive, AID923 0.7%, A488 fluor inactive and A647 fluor 2.2e-09.
For O=C(Nc1ccc2nc(-c3cccs3)[nH]c2c1)c1cccs1 the results were TSHR agonist 25%, Resorufin autofl inactive, AID923 2.9%, A488 fluor inactive and A647 fluor 1e-09.
O=C(O)C(Cc1cc2ccccc2[nH]1)N1C(=O)C2CC=C(Cl)CC2C1=O (stereo not given) was read as TSHR agonist inconclusive, Resorufin autofl inactive, AID923 -1.0%, A488 fluor inactive and A647 fluor 2e-08.
Screening N#Cc1ccccc1-c1ccc2ncnc(NCc3cccnc3)c2c1 returned TSHR agonist 24%, Resorufin autofl inactive, AID923 2.5%, A488 fluor inactive and A647 fluor 4.4e-08.
For CCCCn1c(N)c(N(CC)C(=O)c2ccc3c(c2)S(=O)(=O)c2ccccc2C3=O)c(=O)[nH]c1=O the results were TSHR agonist -3%, Resorufin autofl inactive, AID923 0.2%, A488 fluor inactive and A647 fluor 1e-09.
`COC(=O)[C@@]1(Cc2ccc(F)cc2)[C@H]2c3cc(C(=O)N4CCCC4)n(C[C@H](O)CO)c3C[C@H]2CN1C(=O)c1ccccc1` gave TSHR agonist 7% and AID923 5.5%.
For O=C(O)CCCNS(=O)(=O)c1ccc(NCc2ccccc2)c(C(=O)O)c1 the results were TSHR agonist 1%, Resorufin autofl inactive, AID923 3.1%, A488 fluor inactive and A647 fluor 3e-09.
For Cc1cc(NC(=O)COC(=O)C2CCN(C(=O)c3ccc(Cl)cc3)CC2)no1 the results were TSHR agonist -1%[11.4 µM], Resorufin autofl inactive, AID923 1.0%, A488 fluor inactive and A647 fluor 1e-09.
CCN(C(=O)CSc1nc2cc(C(=O)OC)ccc2c(=O)n1Cc1ccco1)c1cccc(C)c1 was read as TSHR agonist 11%, Resorufin autofl inactive, AID923 -0.2%, A488 fluor inactive and A647 fluor 1.9e-09.
Screening CC1CCc2c(sc3ncn4c(SCC(=O)NCc5ccco5)nnc4c23)C1 (stereo not given) returned TSHR agonist inconclusive, Resorufin autofl inactive, AID923 0.7%, A488 fluor inactive and A647 fluor 4.1e-08.
Screening N#C/C(=C\c1c(N2CCC(C(N)=O)CC2)nc2ccccn2c1=O)S(=O)(=O)c1ccccc1 returned Resorufin autofl inactive, A488 fluor inactive and A647 fluor 2e-08.
Screening NNCCc1ccccc1 returned TSHR agonist 1%[25.6 µM], Resorufin autofl inactive, AID923 2.3%, A488 fluor inactive and A647 fluor 3.3e-08&1e-08.
`O=C(CC1Oc2ccccc2NC1=O)NCCCN1CCOCC1` (stereo not given) gave TSHR agonist 2% and AID923 1.4%.
For Cc1ccccc1/C=C\C1=NCCN1 the results were TSHR agonist 0.13µM*, Resorufin autofl inactive, AID923 -4.4%, A488 fluor inactive and A647 fluor 4.8e-08.
Screening O=C(NCC(c1cccnc1)N1CCN(c2ccccc2)CC1)c1ccco1 (stereo not given) returned TSHR agonist 10%, Resorufin autofl inactive, AID923 -1.3%, A488 fluor inactive and A647 fluor 1.8e-08.
CC12CN3CC(C)(CN(C1)C31C(=O)N(Cc3ccccc3)c3ccccc31)C2=O (stereo not given) was read as TSHR agonist -3%, Resorufin autofl inactive, AID923 1.9%, A488 fluor inactive and A647 fluor 3.8e-09.
`NC(=O)C1(N2CCCCC2)CCN(C(=O)CSc2nc(C(F)(F)F)cc(=O)[nH]2)CC1` gave TSHR agonist -16%, Resorufin autofl inactive, AID923 0.3%, A488 fluor inactive and A647 fluor 1e-09.
For CN1C(=O)Cn2c1nc1ccccc12 the results were TSHR agonist inconclusive, Resorufin autofl inactive, AID923 -1.1%, A488 fluor inactive and A647 fluor 2.2e-08.
`COc1ccc(C2C(C#N)=C(N)Oc3cc(C)n(CCN4CCOCC4)c(=O)c32)cc1OC` (stereo not given) gave Resorufin autofl inactive, A488 fluor inactive and A647 fluor 1.2e-08.
Screening CCCCOC(=O)Nc1cccc(C(C)=O)c1 returned TSHR agonist 17% and AID923 1.3%.
`Nc1c(C(=O)Nc2ccc(F)cc2)sc2nc(-c3ccco3)ccc12` gave TSHR agonist 8%, Resorufin autofl inactive, AID923 0.3%, A488 fluor inactive and A647 fluor 1e-09.
For O=S(=O)(Nc1cccnc1)c1cccc2cccnc12 the results were TSHR agonist -4% and AID923 0.2%.
For COc1ccc(NC(=O)C2C3CCC(C3)C2C(=O)O)cc1OC (stereo not given) the results were TSHR agonist 15%, Resorufin autofl inactive, AID923 1.5%, A488 fluor inactive and A647 fluor 1e-09.
For c1ccc(Cn2nnnc2CN2CCN(c3ncccn3)CC2)cc1 the results were TSHR agonist 1%, Resorufin autofl inactive, AID923 0.6%, A488 fluor inactive and A647 fluor 1.3e-09.
COc1ccc(NC(=O)c2ccccc2NC(=O)C2CCCO2)cc1 (stereo not given) was read as TSHR agonist 0%, Resorufin autofl inactive, AID923 -1.7%, A488 fluor inactive and A647 fluor 1e-09.
Screening CC1CCCC(NS(=O)(=O)c2ccc3c(c2)OCCO3)C1C (stereo not given) returned TSHR agonist inconclusive, Resorufin autofl inactive, AID923 -0.6%, A488 fluor inactive and A647 fluor 1e-09.
Screening COCc1[nH]nc2c1C(c1cc(OC)c(O)c(OC)c1)C(C#N)=C(N)O2 (stereo not given) returned TSHR agonist -3%, Resorufin autofl inactive, AID923 0.3%, A488 fluor inactive and A647 fluor 1e-09.
For Cc1cc(-c2ccccc2)n(-c2ccc(C(=O)N3CCN(c4ncccn4)CC3)cc2)n1 the results were TSHR agonist 15%, Resorufin autofl inactive, AID923 0.6%, A488 fluor inactive and A647 fluor 1e-09.
Screening Cc1noc(C)c1COC(=O)c1cc(C)n(-c2ccccc2)c1C returned TSHR agonist inconclusive, Resorufin autofl inactive, AID923 -0.7%, A488 fluor inactive and A647 fluor 1.4e-09.
Screening FC(F)(F)c1cc(NC(=S)N2c3ccccc3-n3cccc3[C@H]2c2cccnc2)cc(C(F)(F)F)c1 returned TSHR agonist 4%[11.4 µM], Resorufin autofl inactive, AID923 20%[11.5 µM], A488 fluor inactive and A647 fluor 3.4e-08.
Cc1ccc(S(=O)(=O)N(CC(O)CN(C)C)c2ccccc2)cc1 (stereo not given) was read as Resorufin autofl inactive, A488 fluor inactive and A647 fluor 1e-09.
Screening COc1cc2cc(C(c3nnnn3C3CCCCC3)N(C)C3CCCCC3)c(=O)[nH]c2cc1OC (stereo not given) returned TSHR agonist inconclusive, Resorufin autofl inactive, AID923 2.3%, A488 fluor inactive and A647 fluor 8.9e-09.
CN1CCc2cccc3c2[C@@H]1Cc1ccc(O)c(O)c1-3 was read as TSHR agonist -2%, Resorufin autofl inactive, AID923 -3.6%, A488 fluor inactive and A647 fluor 1.3e-08&4.2e-09&1.9e-08.
For CSc1nnc2n(C)c3c(c(=O)n12)C1(CCCC1)Cc1ccccc1-3 the results were TSHR agonist 3% and AID923 2.2%.
CN(C(=O)C1CCOC1)c1nnc(-c2cnccn2)s1 (stereo not given) was read as TSHR agonist 23%, Resorufin autofl inactive, AID923 0.9%, A488 fluor inactive and A647 fluor 3.8e-08.
Screening CCOC(=O)c1c(NC(=O)C2CCCN2S(=O)(=O)c2cccc3nsnc23)sc(C)c1C (stereo not given) returned TSHR agonist -6%[11.4 µM] and AID923 1.3%.
CC1(C)CC(=O)CC(C2(O)C(=O)N(Cc3ccccc3)c3ccccc32)O1 (stereo not given) was read as TSHR agonist -2% and AID923 0.1%.
`COc1ccc2nc3c(nc2c1)C(=O)c1ccccc1-3` gave TSHR agonist 2% and AID923 11%.
For COc1ccccc1NS(=O)(=O)CC12CCC(CC1=O)C2(C)C (stereo not given) the results were TSHR agonist -4%[11.4 µM], Resorufin autofl inactive, AID923 0.4%, A488 fluor inactive and A647 fluor 1e-09.
Screening O=C(NCc1ccc(Cl)cc1Cl)c1ccccn1 returned TSHR agonist inconclusive, Resorufin autofl inactive, AID923 -0.1%, A488 fluor inactive and A647 fluor 3.1e-08.
`O=C(NC12CC3CC(CC(C3)C1)C2)N1CCN(S(=O)(=O)c2ccc(Cl)cc2)CC1` gave TSHR agonist inconclusive, Resorufin autofl inactive, AID923 -0.2%, A488 fluor inactive and A647 fluor 1e-09.
`CCCc1nc2n[nH]c(N)c2c2c1COC(C)(C)C2` gave Resorufin autofl inactive, A488 fluor inactive and A647 fluor 2.7e-09.
